# VDR inhibitor: inhibitors of human vitamin D receptor; P11473; VDR-SRC2-3 peptide fluorescence polarization, 2 h; Potency, µM, without a hit: max response, negative = inhibition, actives largely listed as inhibitors; 400,000 compounds, 0.93% hits; AID 504847; active = well fitted inhibition curve with a large enough effect; inconclusive = small, poorly fitted or top-dose-only effect, or another doubt; inactive = no such curve, though single readings can be large or run the other way; note: series mostly up to about 120 µM
# Target sequence (P11473 whole entry, looked up): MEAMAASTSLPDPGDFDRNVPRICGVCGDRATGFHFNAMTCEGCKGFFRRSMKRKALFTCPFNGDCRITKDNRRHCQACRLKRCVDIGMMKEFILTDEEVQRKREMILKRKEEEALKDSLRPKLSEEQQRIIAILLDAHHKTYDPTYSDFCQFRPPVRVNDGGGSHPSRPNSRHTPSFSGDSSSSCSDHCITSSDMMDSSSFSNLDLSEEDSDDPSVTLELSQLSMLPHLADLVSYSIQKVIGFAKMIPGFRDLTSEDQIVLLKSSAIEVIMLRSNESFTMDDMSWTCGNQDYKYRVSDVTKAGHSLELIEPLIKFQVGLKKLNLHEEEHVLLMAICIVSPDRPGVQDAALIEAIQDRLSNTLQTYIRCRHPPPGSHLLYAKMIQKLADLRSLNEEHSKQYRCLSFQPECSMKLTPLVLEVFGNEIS
#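 Inhibition of the VDR/SRC2-3 peptide interaction is quantified by fluorescence polarization. Compounds (23 nl, pintool) incubate with the reagents for 2 hours at ambient room temperature.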
# Numbers without * were called inactive; ? = inconclusive; & = joins results of further samples; [ ] = dose if it differs, or a comment. % is set by controls: 0 for no effect and ±100 for the full control effect; potency is the fitted concentration of half-maximal effect.
mol,VDR inhibitor
COc1ccccc1NS(=O)(=O)c1cc2c(cc1Cl)NC(=O)CO2,9.4%
COc1cccc(Cn2c(C)c(CNCc3cccc(C)c3)c(C(=O)O)c2C)c1,13.8%
Cc1ccc(SCCC(=O)NC(C(C)C)C(C)C)cc1,-4.1%
CC(NC(=O)c1cccnc1)C(=O)O (stereo unspecified),-4.5%
COc1cc(Cl)c(C)cc1NC(=O)CSc1nc2ccccc2o1,-4.9%
COC(c1ccccc1)c1nnc(CCC(=O)N(C)CCOc2ccccc2)o1 (stereo unspecified),5.7%
Cc1c(NC(=O)c2cnn3c2NC(c2ccc(Br)cc2)CC3C(F)(F)F)c(=O)n(-c2ccccc2)n1C (stereo unspecified),4.3%
CCn1c(CN2CCN(C(=O)c3ccco3)CC2)nc2c1c(=O)n(C)c(=O)n2C,-3.4%
COc1ccc(Nc2nc(-c3cc4cccc(OC)c4oc3=O)cs2)cc1,-19.6%
O=C(c1ccccc1)N1N=C(c2ccc(F)cc2)CC1c1ccc(F)cc1 (stereo unspecified),-1.9%
O=C(NCC(=O)N1CCCCC1)c1ccc(Cl)cc1Cl,5.9%
COc1ccc(Cc2nc3ccc(C(=O)NCc4ccccc4C)cc3o2)cc1,5.9%
COc1ccc(N2C(=O)CSC23C(=O)N2c4c(cccc43)C(C)=CC2(C)C)cc1 (stereo unspecified),12.0%
O=C(Oc1ccc(-c2nnco2)cc1)c1ccc(Br)o1,11.1%
CCN(CCCCCN(C)C)Cc1cc2ccccc2o1,-2.2%
Cc1ccc(NC(=O)N2CCC(N3CCN(Cc4ccccc4)C(=O)C3=O)CC2)cc1Cl,17.8%
Fc1cccc(Cl)c1Cn1nnc(-c2ccc3c(c2)OCO3)n1,-0.6%
COc1cccc(C2CCCN2Cc2nc(-c3cnccn3)no2)c1 (stereo unspecified),1.8%
O=C(c1cccc(Br)c1)N1CCN(c2cnn(-c3ccccc3)c(=O)c2Cl)CC1,-1.0%
COc1ccc(C2/C(=C(/O)c3ccccc3)C(=O)C(=O)N2CCN2CCOCC2)c(OC)c1 (stereo unspecified),0.4%
Cc1ccc(NC(=O)CCc2c(C)nn(-c3ccc(N4CCOCC4)nn3)c2C)cc1F,13.4%&1.4%
COc1ccc(/C=N/NC(=O)c2cc(C(C)(C)C)[nH]n2)cc1COc1ccc(F)cc1F,-15.0%
O=c1c2cnn(-c3ccccc3)c2nnn1Cc1ccccn1,7.7%
CCOC(=O)c1sc(NC(=O)C(OC(C)=O)c2ccccc2)nc1C (stereo unspecified),-18.2%
COc1ccc(OC)c(/C(O)=C/C(=O)C(=O)Nc2cc(C)ccc2OC)c1,8.7%
COc1ccccc1C(=O)Nc1cc2c(cc1N1CCOCC1)n(C)c(=O)n2C,7.0%
N/C(=N\OC(=O)CC(c1ccccc1)c1ccccc1)c1cccnc1,6.6%
CC(=O)N1CC=CC1(CC(C)C)C(=O)NCCN1CCOCC1 (stereo unspecified),4.4%
NS(=O)(=O)c1cc2c(cc1Cl)NC(c1ccccc1OCC(=O)O)NS2(=O)=O (stereo unspecified),10.3%
O=C(CSc1nc2scc(-c3cccs3)c2c(=O)n1CCc1ccccc1)N1CCCC1,-20.6%
COc1ccc2c(c1)N(C[C@@H](C)CN(C)C)c1ccccc1S2,1.6%
O=C1C(Cl)=C(NCC2CCCO2)C(=O)N1CCc1ccccc1 (stereo unspecified),5.4%
CSc1ccccc1NC(=O)C(=O)c1c[nH]c2ccccc12,0.9%
Cn1c2c(c(=O)n(C)c1=O)CN(CCCN1CCOCC1)CN2,2.8%
CCOc1ccc(S(=O)(=O)NN2Cc3ccccc3C2=N)cc1,?
Cc1c(Cl)cccc1NC(=O)NNC(=O)CCc1ccccc1,20.8%
COc1ccc(S(=O)(=O)/C(C#N)=C/Nc2cccc(F)c2)cc1,6.3%
Cc1ccc(S(=O)(=O)Nc2ccc(S(=O)(=O)Nc3cc(C)nc(C)n3)cc2)cc1,13.5%
COc1ccc(OC(C)C(=O)NCc2cccnc2)cc1 (stereo unspecified),-5.8%
O=C(COC(=O)CC1CC2CCC1C2)Nc1cc([N+](=O)[O-])ccc1F (stereo unspecified),17.5%
CCOc1ccc(CCNC(=O)c2ccc(CSCc3ccccc3C)o2)cc1OCC,2.0%
N/C(=N\OC(=O)c1cccc(Cl)c1)c1ccncc1,6.2%
Cc1ccc(C(=O)N2CCN(c3ccc(NC(=O)c4ccc(Br)o4)cc3)CC2)cc1,3.2%
COc1ccc(Cl)cc1NC(=O)NC(C)C(C)(C)C (stereo unspecified),-8.2%
COc1ccc(/C=C/C(=O)c2ccccc2)cc1COc1ccc(F)cc1,-7.5%
CCOC(=O)C1C(=O)C=C(c2ccc(Br)cc2)CC1c1ccco1 (stereo unspecified),-7.7%
Cc1oc(-c2cccc(Cl)c2)nc1CSc1nc2ncccc2[nH]1,-1.6%
COc1ccccc1CNC(=O)Cc1c[nH]c2ccccc12,3.0%
COc1ccccc1CN1CC2(CCN(C(=O)c3ccncc3)CC2)C1,8.5%
CC(=O)Oc1ccc(C(=O)Nc2cc(C)on2)cc1,-20.9%
Cc1cccc(C2c3[nH]c4ccccc4c3CCN2Cc2cnn(-c3ccc(F)cc3)c2)n1 (stereo unspecified),1.2%
N#C/C(=C1/C(=O)Nc2ccc(Br)cc21)c1ccccn1,-1.8%
NC(=O)CSc1nc2ccccc2n1-c1ccccc1,-19.5%
COc1ccccc1CNC(=S)NCCc1ccccc1,-18.9%
CCOC(=O)C1CCN(c2c(Nc3ccc(C)c(C)c3)c(=O)c2=O)CC1,-7.3%
CC(=O)Oc1ccccc1-n1c(C)nc(=O)c(-c2ccccc2)c1C,3.4%
NC(=S)NC1CC2CC1C1C=CCC21 (stereo unspecified),10.9%
O=C(COc1ccccc1)NCc1nnc(SCC(=O)Nc2nccs2)n1-c1ccccc1,-0.6%
O=C(Cn1cnc2ccccc2c1=O)Nc1ccc(S(=O)(=O)N2CCOCC2)cc1,-0.4%
CCN1/C(=C2\C(=O)N(C)C(=S)N2C)C=Cc2ccccc21,0.1%

# The list continues.
mol,VDR inhibitor
CC(=O)NNS(=O)(=O)c1scc(S(=O)(=O)c2ccc(Cl)cc2)c1C,-2.5%
c1cncc(-c2nnc3n2N=C(c2cccs2)CS3)c1,6.2%
Cc1cc(=O)c2cc(C(=O)Nc3ccccc3C)ccc2[nH]1,19.3%
COc1ccccc1/C=C/C(=O)Nc1nc(N)n(-c2ccccc2)n1,21.7%
Cn1cccc1C(=O)N1CCC2(CC1)CCN(c1ccccc1)CC2,-6.8%
CN1C(=O)CC(n2c(CO)nc3ccccc32)C1=O (stereo unspecified),33.3%[activator]
CCC(=O)N1c2ccc(S(=O)(=O)CCC(=O)NCCC3=CCCCC3)cc2CC1C (stereo unspecified),4.8%
CCn1cc(CNC(=O)/C=C/c2ccc([N+](=O)[O-])cc2)c(C)n1,-11.8%
NC(=O)c1ccc(NC(=S)NCc2ccco2)cc1,-0.9%
CC1=NN(c2ccc(Cl)c(C(=O)O)c2)C(=O)C1,-23.6%
O=C(Nc1ccc2nc3n(c(=O)c2c1)CCCCC3)c1cc([N+](=O)[O-])ccc1F,-14.8%
O=C(COC(=O)c1ccccn1)Nc1ccccc1OC(F)F,-16.0%
O=C(Nc1ccccc1C(=O)O)c1cccc(F)c1,8.2%
CCc1ccccc1N(CC(=O)N1CCN(c2ccc(F)cc2)CC1)S(C)(=O)=O,1.2%
CCN(C(=O)COC(=O)COc1ccc2c(C)cc(=O)oc2c1)C1CCS(=O)(=O)C1 (stereo unspecified),8.2%
C=CCN(c1ccccc1)S(=O)(=O)c1cccc(C(=O)N2CCN(c3ncccn3)CC2)c1,-6.0%
Cc1ccc(NC(=O)CN2C(=O)NC3(CCCCC3C)C2=O)cc1S(=O)(=O)N1CCCCC1 (stereo unspecified),-9.9%
CC(C)CC(NS(=O)(=O)c1cccc(C(=O)O)c1)C(=O)O (stereo unspecified),1.8%
COc1ccc(-c2[nH]c(-c3ccccc3)nc2SCC(=O)Nc2ccc3c(c2)OCO3)cc1,-15.4%
COc1ccc(N2C(=O)C(Cl)=C(NCc3ccccc3)C2=O)cc1,-20.3%
CN(CCc1ccccn1)C(=O)CCC1CCCN(C(=O)NC2CCCCC2)C1 (stereo unspecified),-11.4%
O=C(c1cnccn1)N1CCC[C@@]2(CCN(c3cccc(-c4ccccc4)c3)C2)C1,28.2µM*
CC1CCN(C(=S)Nc2ccc(F)cc2)CC1,-18.3%
COc1cc(/C=N/NC(=O)C(N)=O)ccc1OC(=O)c1cccs1,1.0%

# Reprinted from the part before: 4 entries, followed by the next part.
mol,VDR inhibitor
CN(CCc1ccccn1)C(=O)CCC1CCCN(C(=O)NC2CCCCC2)C1 (stereo unspecified),-11.4%
O=C(c1cnccn1)N1CCC[C@@]2(CCN(c3cccc(-c4ccccc4)c3)C2)C1,28.2µM*
CC1CCN(C(=S)Nc2ccc(F)cc2)CC1,-18.3%
COc1cc(/C=N/NC(=O)C(N)=O)ccc1OC(=O)c1cccs1,1.0%
Cc1cc(Cl)c2oc(C(=O)N(C)CCc3cnn(C)c3)c(C)c2c1,-27.4%
Cc1cccc(NC(=O)c2nc[nH]c2C(=O)N2CCC(C)CC2)c1,-9.9%
CCOC(=O)Cn1c(CN(Cc2ccccc2)Cc2ccccc2)nc2c1c(=O)[nH]c(=O)n2C,6.5%
NCCSSCCN,25.1µM*
CC(=O)Nc1nonc1-c1nnc(SCC(=O)N(C)c2ccccc2)n1C,8.3%
CCCCn1c(N)c(N(CC)C(=O)C2CCCC2)c(=O)[nH]c1=O,1.9%
O=C(NCc1ccco1)C(c1ccncc1)N(C(=O)Cc1cccs1)c1ccccc1 (stereo unspecified),13.7%
Cc1cc(C)nc(SCc2nnc(SCC#N)n2-c2cccc(Cl)c2)n1,-2.9%
O=C(CSc1oc(-c2ccc(F)cc2)nc1S(=O)(=O)c1ccc(Cl)cc1)c1ccccc1,14.4%
COc1cc(CN2CCCCC2C(=O)Nc2ccc(Oc3ccccc3)nc2)ccc1O (stereo unspecified),-6.3%
CCOC(=O)c1cc(C(C)(C)C)nc(SC)c1C#N,-23.7%
CCOC(=O)CCC(NC(=O)c1ccc(Nc2nc3ccccc3nc2C(=O)OCC)cc1)C(=O)OCC (stereo unspecified),-25.8%
CCCCC1(C(=O)OCC)NC(c2ccc(O)cc2)C2C(=O)N(c3ccccc3)C(=O)C21 (stereo unspecified),?
Cc1cc(C)cc(NC(=O)CN(c2cc(C(F)(F)F)ccc2Cl)S(=O)(=O)c2ccccc2)c1,4.9%
COc1ccc(/C=C/C(=O)N(Cc2cccs2)C2CCS(=O)(=O)C2)cc1 (stereo unspecified),8.5%
COc1cc([N+](=O)[O-])cc(/C=N/NC(=O)C(C)Nc2cccc(C)c2)c1O (stereo unspecified),-17.1%
CCCCn1cnc2c([nH]c3cc(OC)ccc32)c1=O,13.2%
CCCN1CCN(CCCNC(=O)c2cc3c(Cl)nc4ccccc4c3s2)CC1,5.9%
CCN1CCN(c2nc(Nc3cccc(OC)c3)nc(N)c2[N+](=O)[O-])CC1,-5.3%
CCN(CC(=O)Nc1ccc2c(c1)OCCO2)C(=O)c1cc(Cl)nc2ccccc12,-10.3%
CC(C)(C)c1ccc(/C=N/NC(=O)C2CCCC2)cc1,-8.7%
CCC(C)(C)N(C(=O)CCC(=O)Nc1cc(C)on1)C(C(=O)NC(C)(C)C)c1ccc(OC)cc1 (stereo unspecified),5.7%
COc1ccc(S(=O)(=O)Nc2ccccc2OC)cc1NC(=O)CC1CC2CCC1C2 (stereo unspecified),-13.0%
Cc1sc(NC(=O)c2cccs2)c(C(=O)OC(C)C)c1C,-7.3%
CCNS(=O)(=O)c1ccc(CCC(=O)N2CCCC2)cc1,?
COc1ccccc1NC(=O)CSc1nnc(NC(=O)NC2CCCCC2)s1,5.6%
CCOc1ccccc1CNC(=O)c1cc2c(=O)n(Cc3ccccc3)ccc2nc1C,1.6%
CCCCc1nc(N2CCOCC2)c(C#N)c2c1COC(C)(C)C2,-0.3%
CCCc1cc(N2CCN(c3ccccn3)CC2)n2nc(C)c(-c3ccccc3)c2n1,11.5%
CCOC(=O)c1c(NC(=O)c2ccc(N3C(=O)[C@@H]4[C@H](C3=O)[C@H]3C=C[C@@H]4C3)cc2)sc2c1CC(C)CC2 (stereo partly specified),-8.6%
O=C(CCC(=O)N1CCCCC1)Nc1ccc(Cl)c(Cl)c1,-15.5%
O=C(C1CCN(CCCc2ccccc2)CC1)N(CCc1ccccc1)Cc1ccccc1,0.0%
COc1ccccc1CNC(=O)COC(=O)c1n[nH]c2ccccc12,-8.4%
Cc1ccc(F)cc1NC(=O)Cc1ncc(C(F)(F)F)cc1Cl,17.7%
O=C(NCCN1C(=O)S/C(=C\c2cccs2)C1=O)c1ccco1,-9.1%
O=C(C1CCC1)N1CCN(c2cccc(C(F)(F)F)c2)CC1,-10.6%
CCN1C(N(C)CCc2cccs2)=N[C@@H](c2ccccc2)C(C(=O)OC)=C1C,-8.0%
CCC(=O)N1CCc2cc(S(=O)(=O)CCC(=O)N(C)c3ccc(OC)cc3OC)ccc21,7.1%
COc1ccc(S(=O)(=O)N(C)CC(=O)NCc2ccco2)cc1,-9.7%
O=c1c2ccccc2nc(N/N=C/c2ccc(O)cc2)n1O,0.1%

# Bioassay records as filed in PubChem.

# Not all compounds are listed. The share of hits here may be higher or lower than overall.
